# NPYLR7 agonist: agonists of mosquito NPYLR7 receptor, primary screen, cell-based, Aedes aegypti, calcium fluorescence, mosquito biting behavior; activation, % at 10 µM; Aedes aegypti neuropeptide Y-like receptor 7 (NPYLR7); HEK293T NPYLR7/Galpha15, GCaMP6s calcium fluorescence; 270,000 compounds, 0.15% hits; in the data active = activation above about 40%;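 note: 0% = vehicle and 100% = reference agonist at the receptor; some compounds past the cut are filed as inactive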
# NPYLR7 agonist max-min: recorded beside NPYLR7 agonist, whose call it bears; activation, %; measured here: Max-Min RFU normalised activation; some inactives read as strong as hits;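 span of the calcium signal over five minutes; 0% = vehicle and 100% = native peptide agonist; compound fluorescence can raise it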
# The depositor's hits bear a star; & = joins results of further samples. Not all compounds are listed; rates above refer to the full screens.
SMILES,NPYLR7 agonist,NPYLR7 agonist max-min
COc1cc(CN2CCCn3cccc3C2c2cccc(F)c2)ccc1O (stereo unspecified),-3,-1
C[C@@H]1[C@H]2C[C@@H](C[C@H]1NC(=O)/C=C(/C(=O)N[C@@H]1C[C@@H]3C[C@H]([C@H]1C)C3(C)C)c1ccccc1)C2(C)C,-7,-14
Cc1cc(C(=O)N(C)Cc2noc(CC(C)C)n2)nc(C)n1,4,4
Cc1cc(NCCCN2CCOCC2)n2c(nc3ccccc32)c1C#N,3,-5
Cc1cc(C2CCCN2C(=O)NC(C)c2ccccc2C)on1 (stereo unspecified),2,2
Cc1ccc(-c2cc(C(=O)N3CCCN(CC4CC4)C(C(C)C)C3)n[nH]2)o1 (stereo unspecified),-7,-9
CC(O)CC(C)CNC(=O)Nc1cccc(-n2cccc2)c1 (stereo unspecified),3,-1
Cc1cc(C)n2nc(SCc3csc(-c4cccs4)n3)nc2n1,0,2
CC(C)c1ccc2[nH]c(O)c(N=Nc3nc4ccccc4[nH]3)c2c1,5,5
CCC(=O)N1CCN(c2ccc(Nc3ccc(C)cc3)nn2)CC1,3,1
COc1cccc(C2CCN2C(=O)CC(=O)Nc2ccc(C)cc2)c1 (stereo unspecified),-6,-7
Cc1nc(CN2CCN(Cc3cc4n(n3)CCCNC4)CC2)no1,7,4
NC(=O)C1CC2CCCCC2N1c1ccc(S(=O)(=O)C(F)(F)F)cc1 (stereo unspecified),-13,-14
Cc1c(C(=O)N2CCN(C(c3ccccc3)c3ccc(Cl)cc3)CC2)oc2ccccc12 (stereo unspecified),34,26
CCc1ccc(CCC(=O)NCC(=O)Nc2ccc(F)c(F)c2F)cc1,13,4
N#Cc1ncn(CC(=O)c2c[nH]c3ccccc23)n1,-1,-1
C=Cc1cccc(CN2CCN(c3cncc(C(=O)N(C)C)n3)CC2)c1,22,6
CCOC(=O)CN1C(=O)CCN(C(=O)NC2CCCC2)CC(OC)c2ccccc21 (stereo unspecified),4,9
CC(C)(C)NC(=O)N1CCN(C(C(=O)NCc2ccccn2)C2CCCC2)CC1 (stereo unspecified),-4,1
Cn1cc(CN2CCC(CCC(=O)NCc3ccc(F)cc3)CC2)c2ccccc21,2,1
CCOc1ccc(C=C2SC(=O)NC2=O)cc1,-2,-4
FC(F)(F)COCCCOc1nnc2ccccn12,-1,-3
O=C(NCCc1ccccc1)c1ccc(OC2CCN(C(=O)c3cccs3)CC2)cc1,8,9
Cc1ccc(Cn2nnc3c(SCC(=O)NCc4ccc5c(c4)OCO5)ncnc32)cc1,3,26
COc1ccc(C(C)NC(=O)C2CCN(Cc3ccccc3)CC2)cc1OC (stereo unspecified),14,5
Cc1noc(C(C)C)c1C(=O)NCC1(c2ccc3c(c2)OCO3)CCCCC1,-2,-4
O=C(CSc1ncc(-c2ccc(Cl)cc2)o1)NCC1CCCO1 (stereo unspecified),16,1
CCOC(=O)N1CCN(C(=O)c2cc(-c3ccc(F)cc3)nc3cc(-c4ccccc4)nn23)CC1,9,8
CC(C)c1ccccc1OCC(O)Cn1nc(C(N)=O)c2ccccc2c1=O (stereo unspecified),2,2
FC(F)(F)CCc1ccnc(NCc2ccc3c(c2)OCO3)n1,2,1
CC(C)c1cc(NCCN(C)C)n2ncc(-c3ccccc3)c2n1,8&3,4&2
Cc1cccc(CN2C(=O)C3(SCCN3C(=O)Nc3cccc(F)c3)c3cc(Cl)ccc32)c1 (stereo unspecified),15,22
CNc1nc(-c2ccccc2)cc(-c2ccccc2)n1,-4,-12
O=C(NCc1ccc(-c2ncc(-c3ccc(F)cc3)[nH]2)cc1)c1ccc(F)c(F)c1F,-2,-4
CCCCC(CC)C(=O)Nc1ccc(-n2nc(OCCOCC)nc2-c2ccccc2F)cc1 (stereo unspecified),18,25
CN(C)C=Nc1nc(-c2ccccc2)c(-c2ccccc2)s1,3,5
Cc1nn(C)c(C)c1NC(=O)C(C)Sc1nnc(C2CC2)n1C1CC1 (stereo unspecified),2,0
Cc1cc(C(F)(F)F)nc(CNC(=O)CCc2c(C)nn(C)c2C)n1,14,10
CC(c1ccc(F)c(F)c1)N(C)C(=O)Cn1cnnc1S(C)=O (stereo unspecified),25,25
COc1cccc(CO[C@]2(C(=O)NCC3CCCO3)CC(OCc3ccc(F)cc3)[C@H](O)[C@H](O)C2)c1 (stereo partly specified),4,11
CCOc1ccc(-c2ncncc2Oc2ccccc2OC)c(O)c1,3,0
CCOC(=O)[C@@H]1[C@@H](OC)C(=O)N(C)C12CCN(C(=O)c1ccno1)CC2,25,25
Cc1ccccc1-n1c(SCc2ccccc2C(F)(F)F)nnc1-c1ccccc1F,19,22
COC(=O)c1c2c(nc3c1c(-c1ccccc1)nn3C1CCS(=O)(=O)C1)CCC2 (stereo unspecified),2,-1
Cc1ccc2oc(CN(C(=O)c3ccc(Cl)c(Cl)c3)C3CCCCC3)nc2c1,4,-1
COc1ccc(-c2ccnc(SCc3ccc(C(=O)N4C5CCC4CC(Oc4ccc(F)cc4F)C5)cc3)n2)cc1 (stereo unspecified),6,-4
CCCNC(=O)C(NC(=O)c1ccc2c(c1)OCO2)C1CCN(S(=O)(=O)c2ccc(C)cc2)CC1 (stereo unspecified),15,18
CCCn1nnc2sc(-c3ccccc3)cc2c1=O,-6,-17
Cc1nn(C)c(C)c1CCC(=O)NC1CCC(C)CC1 (stereo unspecified),-2,-2
CSc1ccc(Cl)c(C(=O)N(C)Cc2nc3ccccc3[nH]2)c1,21,18

# Later entries:
SMILES,NPYLR7 agonist,NPYLR7 agonist max-min
CCOC(=O)c1c(NC(=O)Cn2nc(C(F)(F)F)c(Br)c2C)sc(C)c1C,-1,-5
Cc1[nH]nc2c1C(c1ccccc1[N+](=O)[O-])CC(=O)N2 (stereo unspecified),25,24
CCC(CC)c1nnc(NC(=O)c2c(C)nn(C)c2C)s1,4,3
O=C(CSc1nc2c(c(=O)n1CCc1ccccc1)SCC2)Nc1nc2ccccc2s1,-10,-10
NC(=O)CCSc1n[nH]c(-c2ccc3c(c2)CCC3)n1,2,-12
CCOC(=O)C1CCN(C(=O)c2csc(CN(C(=O)Nc3ccc(OC)cc3)C(C)C)n2)CC1,-7,0
O=c1[nH]nc(Cc2ccncc2)n1CCc1ccccc1F,11,11
O=C(c1coc(CN2CCN(c3ncccn3)CC2)n1)N1CCC(c2ccc(F)cc2)C1 (stereo unspecified),16,5
CC(C)CN(Cc1cnn(C)c1)C(=O)c1cccnc1N1CCOCC1,-3,-7
COCc1c(C(=O)N2CCN(CC(=O)Nc3ccc(F)cc3)CC2)sc2cccc(F)c12,5,0
CCCCN(CC(=O)Nc1cc(C(C)(C)C)nn1-c1ccc(Cl)cc1)S(=O)(=O)c1ccc(C)cc1,6,17
COc1cccc(C2=C(C(C)=O)Sc3nncn3N2C(C)=O)c1,2,0
Cn1c(=O)n(C)c2cc(CNC(=O)CC3COCCN3)ccc21 (stereo unspecified),15,14
NS(=O)(=O)c1cccc(F)c1,0,-2
CCNC(=O)C1CCN(c2cc(C)nc(-c3cccnc3)n2)C1 (stereo unspecified),8,-3

# Quoted at random: 2 records from the list.
SMILES,NPYLR7 agonist,NPYLR7 agonist max-min
CCCCN(CC(=O)Nc1cc(C(C)(C)C)nn1-c1ccc(Cl)cc1)S(=O)(=O)c1ccc(C)cc1,6,17
Cn1c(=O)n(C)c2cc(CNC(=O)CC3COCCN3)ccc21 (stereo unspecified),15,14

# Next section
SMILES,NPYLR7 agonist,NPYLR7 agonist max-min
CCCCn1c(CN(C)CC2COCCO2)cnc1S(=O)(=O)C1CCCCC1 (stereo unspecified),6,5
O=S(=O)(c1cccc(C(F)(F)F)c1)N1CCN(C(c2ccccc2)c2ccc(Cl)cc2)CC1 (stereo unspecified),18,18
Nc1ccccc1-c1c(S)[nH]c2ccsc2c1=O,-4,-9
COc1ccc2c(c1)OCC(C(=O)NS(=O)(=O)c1cccs1)C2 (stereo unspecified),-2,-8
Cc1noc(C)c1CC(=O)N1CCCC(CCc2ccc(F)cc2)C1 (stereo unspecified),6,3
CCn1cc(C(CC(=O)N2CCc3ccccc3C2)c2cccc(Cl)c2)c2ccccc21 (stereo unspecified),7,18
O=C(CN(C(=O)Nc1ccc(F)cc1F)C1CC1)N(CCc1c[nH]c2ccccc12)Cc1ccc(C(F)(F)F)cc1,-14,-2
O=C(CCN1CCc2sccc2C1c1cccc(F)c1)N1CCN(S(=O)(=O)Cc2ccccc2)CC1 (stereo unspecified),10,0
Clc1ccc2nc(N/N=C\c3cccc4cccnc34)nc(-c3ccccc3)c2c1,-4,-9
Cc1cccc(-c2nc3c(C)cccn3c2NC(C)(C)CC(C)(C)C)n1,-3,6
Cc1cc(C)cc(CN2CCCN(c3cccc(NC(=O)CC(C)(C)C)c3)C2=O)c1,-2,-4
CCCCCc1ccc(C(=O)Nc2ccc(C3SCC(=O)N3c3ccccc3C)cc2)cc1 (stereo unspecified),-6,0
O=C(NC1CCCCC1)c1cccc(-n2cnnn2)c1,0,-1
CCC(=O)NCc1ccccc1-c1cccc(-n2cccn2)c1,-2,-6
C=CCCC(CN1CCCN(C)CC1)Oc1ccc(Cl)cn1 (stereo unspecified),18,12
CCN(CC)C(=O)Oc1ccc2c(ccn2Cc2ccccc2Cl)c1NC(=O)C(F)(F)C(F)F,3,-2
CCCCCCc1ccc(C(=O)N(CCCOC)CC(=O)N2CCc3sccc3C2c2ccc(OC)cc2)cc1 (stereo unspecified),-3,4
COc1ccc(C(C2Sc3nc(C)nn3C2=O)N2CCN(Cc3ccccc3)CC2)cc1 (stereo unspecified),1,-1
CC(=O)Oc1ccccc1C(=O)Nc1ncc([N+](=O)[O-])s1,0&-7,8&-9
O=C(c1ccc(N2CCC(NCc3ccc4c(c3)OCO4)CC2)cc1)N1CCOCC1,16,6
CS(=O)(=O)c1ccc(-c2csc(N3CCCC3)n2)cc1,-1,2
O=C(CC(c1cccc(C(F)(F)F)c1)c1c[nH]c2ccccc12)NCc1cccnc1 (stereo unspecified),1,1
COC(=O)c1c(C)[nH]c(C(=O)C(C)OC(=O)c2ccccn2)c1C (stereo unspecified),1,6
O=C(CCc1ccccc1)n1nc(-c2cccnc2)nc1NCc1ccccc1,20,18
Cc1nc2ncnn2c(C)c1CCC(=O)N(C)Cc1ccc(C(F)(F)F)cc1,4,10
COc1ccc(CCCN(C)c2nn3c(=O)cc(C)nc3s2)cc1OC,11,6
COc1ccc(S(=O)(=O)N2CCOCC2)cc1N1CCN(S(=O)(=O)c2cccc(C(F)(F)F)c2)CC1,16,9
COCCn1c(-c2ccncc2)n[nH]c1=S,2,9
CCCS(=O)(=O)N1CCN(c2nc(C)nc(COC)c2Cc2cccc(Cl)c2)CC1,-2,5
CCCc1nn(-c2ccc(Cl)cc2)c(CCC)c1C(=O)NC1CC1,0,10

# Arranged by molecular weight (lowest first): some entries from above
SMILES,NPYLR7 agonist,NPYLR7 agonist max-min
CS(=O)(=O)c1ccc(-c2csc(N3CCCC3)n2)cc1,-1,2
COC(=O)c1c(C)[nH]c(C(=O)C(C)OC(=O)c2ccccn2)c1C (stereo unspecified),1,6
CCCc1nn(-c2ccc(Cl)cc2)c(CCC)c1C(=O)NC1CC1,0,10
O=C(CCc1ccccc1)n1nc(-c2cccnc2)nc1NCc1ccccc1,20,18
COc1ccc(C(C2Sc3nc(C)nn3C2=O)N2CCN(Cc3ccccc3)CC2)cc1 (stereo unspecified),1,-1
CCN(CC)C(=O)Oc1ccc2c(ccn2Cc2ccccc2Cl)c1NC(=O)C(F)(F)C(F)F,3,-2

# (continued)
SMILES,NPYLR7 agonist,NPYLR7 agonist max-min
COC(=O)C1=C(C)N(C)C(=O)NC1c1cccc(Br)c1 (stereo unspecified),1,-1
CCn1cc(C(=O)N2CCN(C(=O)Cc3ccccc3)CC2)c2nn(-c3ccccc3)c(=O)c-2c1,-1,-2
CN(C)c1ccc(CC(=O)N2CCC3(CCc4ccccc43)CC2)cc1,-1,18
Cc1ccc(Cl)cc1N=Cc1nc(-c2ccccc2)oc1O,-6,-8
CCN(c1ccccc1)S(=O)(=O)c1ccc(OC)c(NC(=O)C2=COCCO2)c1,7,3
COc1cc(OC)cc(-c2n[nH]c(=S)n2-c2cccc(C)c2)c1,-7,-1
Cc1cccc(C)c1NC(=O)c1ccc2sc([C@H]3C[C@H](O)[C@@H](CO)O3)nc2c1,0,0
CC(NS(=O)(=O)c1ccc(Cl)cc1)C1CC2CCC1C2 (stereo unspecified),-1&8,-1&8
CC(=O)c1ccc(-c2ccc3c4c(ccc3c2)OC(CNC(=O)CCn2ccc(C)n2)C4)s1 (stereo unspecified),24,19
Cc1ccccc1CSc1nnc(CNC(=O)NCc2ccccc2)n1-c1ccc(Cl)cc1Cl,-9,1
COc1ccc2[nH]c(C(=O)N3CCCC(C(=O)c4cccc(OC(C)C)c4)C3)c(C)c2c1 (stereo unspecified),-8&-2,-11&-4
O=C(COC(=O)C1CCCN(C(=O)N2CCCC2)C1)Nc1cccc2nsnc12 (stereo unspecified),-1,-4
O=C(CC1CSc2nc3c(c(=O)n21)CCCC3)N1CCN(c2ccccc2)CC1 (stereo unspecified),-2,-2
COCCn1c(C)cc(O)c(C(c2cccnc2)N2CCN(c3ccccc3F)CC2)c1=O (stereo unspecified),11,2
Oc1[nH]c2ccccc2c1N=Nc1nc(N2CCOCC2)nc(N2CCOCC2)n1,-4,-9
CN(Cc1cccs1)C(=O)CCc1ccccc1Cl,7,4
Cc1nc(S(=O)(=O)N2CCOCC2)c(C#N)c(C)c1Cl,2,5
